High-throughput results (PubChem BioAssay)
N370S GC mod: qHTS Assay for Inhibitors and Activators of N370S glucocerebrosidase as a Potential Chaperone Treatment of Gaucher Disease. Lysosomal acid glucosylceramidase (Homo sapiens), P04062. N370S GC spleen homogenate, 4MU-glucoside fluorescence. Potency, µM (highest dose often 59.4 µM), without a hit: top-dose activity change, negative = inhibition, most hits filed as inhibitors. hit rate 0.092% among 330,000; active means well fitted inhibition curve with a large enough effect; inconclusive means small, poorly fitted or top-dose-only effect, or effect the other way, or another doubt; inactive means no such curve, though single readings can be large or run the other way;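 further: 0% = full enzyme activity and -100% = no enzyme basal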
Numbers without * were called inactive; ? = inconclusive; & = joins results of further samples; [ ] = remark or other dose. Potency means the concentration at half of the fitted maximal effect. Some of the compounds tested; most or all hits stand in other tables.

SMILES	N370S GC mod
O=C(Nc1cccc(S(=O)(=O)NCc2ccco2)c1)c1cc(-c2ccc(F)cc2)nc2ccccc12	1%
O=C(CSc1nnc(CNC(=O)c2ccccc2F)o1)Nc1ccc2c(c1)OCO2	-10%
COc1ccc(C)cc1NC(=O)CN1C(=O)COc2ccc(S(=O)(=O)N3CCC(C)CC3)cc21	-6%
CN1CCN(S(=O)(=O)c2ccc(N)cc2)CC1	-1%
COc1ccc(OC)c(C2=NOC(C(=O)NCc3ccco3)C2)c1 (stereo not given)	9%
C[C@H](NC(=O)c1ccccc1)C(=O)N1CCC2(CC1)NCCc1[nH]cnc12	-2%
Cc1cc(C(=O)N/N=C2\CC(=O)CC(C)(C)C2)n[nH]1	-6%
CC1=CC(C)(C)N2C(=O)C3(NCCc4c3[nH]c3ccccc43)c3cccc1c32 (stereo not given)	-4%
COc1ccc2c(CCNC(=O)CN3C(=O)c4ccccc4C3=O)c[nH]c2c1	-10%
Cc1[nH]c2ccccc2c1C1C(c2ccccc2)=NN=C(C(C)C)N1O (stereo not given)	18%
CCn1c(=O)c(C(=O)NCCCO)c(O)c2ccccc21	5%
Cc1cc(C(=O)Nc2ccc(N3CCOCC3)c3nonc23)ccc1[N+](=O)[O-]	-5%
O=C(CCc1ccccc1)Nc1cccnc1Cl	-1%
Cc1nccn1CCC(=O)O	3%
CCCOC(=O)c1ccc(-n2nnnc2SCC(=O)N2CCCCC2)cc1	-1%
O=C(Cn1nc(-c2ccccc2)c2ccccc2c1=O)Nc1ccccn1	-16%
CCn1cc(C(=O)N2CCN(Cc3ccc4c(c3)OCO4)CC2)c(=O)c2ccc(C)nc21	?
COc1cccc(C(=O)Nc2ccc(S(=O)(=O)N3CCCCC3)cc2)c1OC	-6%
CC(OC(=O)c1cccc([N+](=O)[O-])c1)C(=O)NCc1ccc2c(c1)OCO2 (stereo not given)	-1%
CC(C)(C)NC(=O)c1ccc2c(c1)C(=O)N(C1CCCCC1)C2=O	12%
Cc1cccc(NC(=O)c2ccc([N+](=O)[O-])o2)n1	-4%
CC1(C)CC(=O)C2=C(C1)OC(N)=C(C#N)C2c1ccccc1 (stereo not given)	-7%
COc1ccc(CC(=O)NC(=S)Nc2ccc(S(N)(=O)=O)cc2)cc1	-2%
COC(=O)c1ccc(CSc2nnc(CNC(=O)c3ccc(OC)cc3)o2)o1	5%

Sorted by molar mass (highest first): 3 of the compounds above
SMILES	N370S GC mod
CCn1cc(C(=O)N2CCN(Cc3ccc4c(c3)OCO4)CC2)c(=O)c2ccc(C)nc21	?
COC(=O)c1ccc(CSc2nnc(CNC(=O)c3ccc(OC)cc3)o2)o1	5%
CC1(C)CC(=O)C2=C(C1)OC(N)=C(C#N)C2c1ccccc1 (stereo not given)	-7%

(list continues)
SMILES	N370S GC mod
Cc1ccc(S(=O)(=O)N2CCCCC2C(=O)O)cc1 (stereo not given)	6%
CC1CN(C(=O)COC(=O)c2ccc(C#N)cc2)CC(C)O1 (stereo not given)	-2%
COCC(=O)N1CCN(c2ccc([N+](=O)[O-])cc2)CC1	-15%
Cc1ccc(OCC(=O)N/N=C2\CCOc3c(C)cccc32)cc1	9%
COC(=O)CCCC1=CC2=CC(=O)C(C)(OC(=O)c3cccs3)C(=O)C2=CN1CCCOC(C)C (stereo not given)	7%[12.8 µM]
CC1CCc2sc(C(=O)OCC(=O)NC(N)=O)cc2C1 (stereo not given)	5%
c1cncc(-c2nc(NCCCn3ccnc3)c3ccccc3n2)c1	-18%
Cc1csc(B(O)O)c1	-8%
CCOC(=O)C(C)Oc1nc(Oc2ccccc2)nc(N(C)C)n1 (stereo not given)	5%
Cn1c(NC(=O)/C=C/c2ccc(Cl)c(Cl)c2)cc(=O)n(C)c1=O	5%
CCCS(=O)(=O)c1ncc(Cl)c(C(=O)Nc2ccc(S(=O)(=O)Nc3ncccn3)cc2)n1	2%
CCOc1ccc(N(CC(=O)N2CCc3ccccc32)S(=O)(=O)c2c(C)noc2C)cc1	-1%
Cc1noc(NS(=O)(=O)c2ccc(NC(=O)COc3ccc(Cl)cc3Cl)cc2)c1C	-5%
Cc1ccc(NC(=O)c2cccc(OCc3c(C)noc3C)c2)cc1S(=O)(=O)Nc1ccccc1Cl	-2%
Cc1ccc(/C=C/C(=O)O)cc1S(=O)(=O)N(C)CCO	-2%
C=C1CCN(C(Cc2ccccc2)C(=O)OC)S(=O)(=O)c2ccc(F)cc21 (stereo not given)	1%&-12%
O=C(COc1ccc(/C=N/NC(=O)c2ccc(O)cc2)cc1)Nc1cccc([N+](=O)[O-])c1	2%
COc1cccc(-n2cnc3sc(C)cc3c2=O)c1	4%
Cc1ccc(-c2[nH]nc3c2C(C)C(C#N)=C(N)O3)cc1 (stereo not given)	8%
CC[C@@H](C)C(NC(=O)OC(C)(C)C)c1cn([C@@H](CCCCNC(=O)OC(C)(C)C)C(=O)N2CCN(C(=O)OC(C)(C)C)CC2)nn1 (stereo not given in full)	-6%
CN(Cc1ccccc1F)C(=O)c1sccc1-c1ccccc1	-9%
COc1ccc(C(=O)Nc2ccc(Cl)cn2)cc1Cl	10%
COc1ccc(C)cc1NC(=S)N1CCN(S(C)(=O)=O)CC1	5%
CC(C)C(C(=O)OCC(=O)c1ccc2c(c1)NC(=O)CO2)N1C(=O)c2ccccc2C1=O (stereo not given)	-3%
COc1ccc(N2CCN(C(=O)c3c(Cl)cnn3C)CC2)cc1	1%
COc1ccccc1/C(C)=N/NC(=S)NCc1ccccc1	12%
CS(=O)(=O)N1CCN(C(=O)NC2CCCCC2)CC1	3%
CC1CCN(CCCCOc2ccccc2-c2ccccc2)CC1	5%
C=CCn1c(Cc2cccs2)nnc1SCC(=O)Nc1cccc(OC)c1	-10%
Cc1c([N+](=O)[O-])c([N+](=O)[O-])nn1CC(=O)N1CCOCC1	-7%
CC(=O)Nc1ccc(C)cc1NC(C)=O	2%
COC(=O)CC(NC(=O)c1ccco1)c1cccc2ccccc12 (stereo not given)	4%
CC(c1nnc(SCC(=O)NC(=O)NCc2ccco2)n1-c1ccc(Cl)cc1)N(C)C (stereo not given)	3%[2.35 µM]
O=C(NCc1ccccn1)C1CCN(S(=O)(=O)N2CCCC2)CC1	0%
CCN(CC)C(=O)c1cnn(-c2ccccc2)c1NC(=O)c1ccco1	3%
O=C(CSCC(=O)N1CCCc2ccccc21)Nc1nc(-c2ccccc2)cs1	-4%
Cc1ccc2nc(N3C(=O)C(O)=C(C(=O)c4cc5ccccc5o4)C3c3cccs3)sc2c1 (stereo not given)	12%
Oc1ccc(-n2cnnn2)cc1	17%
CCCOc1ccc(N2C(=O)CC(N(CCc3ccc(OC)cc3)C(=O)/C=C/C(=O)O)C2=O)cc1 (stereo not given)	10%
Nc1ncn(C2OC(CO)C(O)C2O)c(=O)n1 (stereo not given)	-4%
CCOC(=O)CN(Cc1sccc1C)C(=O)Nc1ccc(OC)cc1OC	0%
CC(C)OC(=O)/C(C#N)=C/c1c[nH]c2ccccc12	18%
CC(=O)N1CCc2cc(S(=O)(=O)NCCCN3CCC(C)CC3)ccc21	-1%
COc1ccc2o/c(=N/NC(=O)c3cccs3)c(C(N)=O)cc2c1	-10%
N#CCCN(C(=O)COC(=O)c1cccc(S(=O)(=O)N2CCCC2)c1)c1ccc(F)cc1	-3%
COC(=O)[C@@]1(Cc2ccc(OC)cc2)[C@H]2c3cc(C(=O)N4CCCC4)n(Cc4ccc(Cl)c(C(F)(F)F)c4)c3C[C@H]2CN1C(=O)c1ccccc1	-5%
CCOC(=O)CNc1nc(Cl)nc(NC(C)(C)C)n1	6%
COc1ccc(NC(=O)Nc2ccc3c(c2)CCC3)c(OC)c1	4%
Cc1ccc(NC(=O)N2CCCCC2)cc1[N+](=O)[O-]	4%
CNc1nc(N/N=C/c2cc3c(cc2[N+](=O)[O-])OCO3)nc(Nc2ccccc2)n1	-26%
CCCCC(=O)NCCc1ccc(OC)cc1	19%
CC(C)(C)NS(=O)(=O)c1ccc(CCC(=O)N2CCOCC2)cc1	7%
COc1ccc2[nH]c3c(NCc4ccco4)ncnc3c2c1	-3%
COc1ccc(Br)c(C(=O)OCc2cc(=O)oc3cc(C)ccc23)c1	-8%
CCCCNC(=O)NCCN1CCOCC1	1%
Cc1nc(SCC(=O)Nc2ccc(N3CCOCC3)cc2)nc(C)c1C	-3%
CCn1c(SCCC(=O)O)nnc1-c1cccnc1	0%
N#Cc1cc(C(=O)c2ccccc2OCC(=O)Nc2ccccc2Cl)cn(C2CCCCC2)c1=O	12%
Cc1cccc(NC(=O)CSc2nc3nc4c(cc3c(=O)n2-c2ccccc2)CCCC4)c1	18%
COc1ccccc1C(=O)NCC(=O)NCC1(N2CCCCC2)CCCCC1	-7%
New compounds follow
SMILES	N370S GC mod
Cc1ccc(C(=O)Nc2ccc(CN3CCS(=O)(=O)CC3)cc2)cc1C	-4%
Cc1ccc(C)c(N2CCN(C(=O)CCCn3c(=S)[nH]c4cc5c(cc4c3=O)OCO5)CC2)c1	2%
Cn1c(Cn2c(=O)sc3ccccc32)nnc1SCc1ccccn1	-29%
NC(=O)COc1ccc(NS(=O)(=O)Cc2ccccc2)cc1	-5%
O=C1C(=O)N(CCS(=O)(=O)c2ccccc2)c2ccc(Cl)cc21	-1%
COc1ccccc1CC(=O)N1CCN(S(=O)(=O)c2ccccc2)CC1	-5%
CN(C)S(=O)(=O)Oc1ccccc1C(=O)Nc1ccc(F)cc1	10%
CCOC(=O)N1CCC(c2cc(=O)n3[nH]c(C)c(-c4ccc(F)cc4)c3n2)CC1	2%
Cn1c(SCC(=O)NCc2ccco2)nnc1-c1ccc(S(=O)(=O)N2CCOCC2)cc1	-8%[2.35 µM]
Cc1cccc(C)c1NC(=O)CNc1ncnc2sc(C)c(C)c12	-8%
Cc1cc(C)c2c(N=CN(C)C)c(C(=O)N3CCN(c4ncccn4)CC3)sc2n1	9%
O=C(O)c1cc(=O)c2cccc(O)c2[nH]1	-14%&1%
COc1ccc(CNC(=O)C(c2ccc(C)o2)N(C(=O)c2csnn2)c2ccc(C(C)C)cc2)cc1 (stereo not given)	0%
Cc1ccccc1C(=O)/C=C1/c2ccccc2CC(C)(C)N1C	-4%
COc1ccc(-c2c[n+]3c(n2-c2ccccc2)CCCCC3)cc1	-1%
CCOC(=O)C(=O)Cc1nc2ccccc2s1	11%
COc1cccc(C2CC(c3ccccc3OC)n3ncnc3N2)c1 (stereo not given)	21%
Cc1ccc(C(=O)NC(=S)Nc2cccc(NC(=O)c3ccccc3Cl)c2)cc1[N+](=O)[O-]	-3%
O=C(CC1c2ccccc2Oc2ccccc21)Nc1ccccc1F	5%
Cc1nn(-c2cccc(Cl)c2)c2nc(-c3ccncc3)cc(C(=O)N3CCOCC3)c12	0%
COc1ccc(-n2nc(C(=O)NCC(=O)Nc3cccc(NC(C)=O)c3)c3ccccc3c2=O)cc1	-9%
O=C(NCc1cccnc1)c1cc(Sc2ccccc2Cl)nc2ccccc12	3%
Cc1cc(C(=O)CSC(C)c2nc3ccccc3c(=O)[nH]2)c(C)n1C (stereo not given)	5%
Cn1nc(C2CC2)cc1NC(=O)CC(CC(=O)O)c1ccccc1 (stereo not given)	0%
Cc1ccc(C(=O)C[n+]2cc(Br)cc(Br)c2)cc1	0%
CN(CC(=O)OCC(=O)NCc1ccccc1)S(=O)(=O)c1ccc(Cl)cc1	0%
Cc1ccc(N(CC(=O)NCC2CCCO2)C(=O)Cn2nnc(-c3cccs3)n2)cc1 (stereo not given)	6%
CC(=O)Nc1ccc(NC(=O)COc2ccc(-c3ccc(C#N)cc3)cc2)cc1	-11%
O=S(=O)(Nc1cccc2ncccc12)c1cccs1	11%
COc1ccc(C(=O)NC2CC2)cc1OC1CCN(Cc2cc(C)c(C)cc2C)CC1	0%
COc1ccccc1Cn1c(=S)[nH]c2cc(C(=O)N3CCCC3)ccc2c1=O	-22%
O=[N+]([O-])c1ccc(Sc2ncc3ccccn23)nc1	-17%
Nc1cccc2cnccc12	2%
Clc1ccc(C2=CSC3=Nc4cccc5cccc(c45)N23)cc1	5%
Cc1ccc(NCC(=O)c2ccc(C)cc2)cc1	0%
CCOC(=O)c1c(-c2ccc(-c3ccccc3)cc2)csc1NC(=O)C1C2CCC(O2)C1C(=O)O (stereo not given)	-3%
CCOC(=O)C1CCN(C(=O)C2CCN(S(=O)(=O)CC)CC2)CC1	-4%
CCOc1ccc(NC(=O)CC2C(=O)N(c3ccccc3)C(=O)N2CCc2cccs2)cc1 (stereo not given)	7%

Ordered by count of non-hydrogen atoms (lowest first): some entries from above.
SMILES	N370S GC mod
Nc1cccc2cnccc12	2%
Cc1ccc(NCC(=O)c2ccc(C)cc2)cc1	0%
O=S(=O)(Nc1cccc2ncccc12)c1cccs1	11%
Clc1ccc(C2=CSC3=Nc4cccc5cccc(c45)N23)cc1	5%
CCOC(=O)C1CCN(C(=O)C2CCN(S(=O)(=O)CC)CC2)CC1	-4%
Cc1cc(C(=O)CSC(C)c2nc3ccccc3c(=O)[nH]2)c(C)n1C (stereo not given)	5%
CN(CC(=O)OCC(=O)NCc1ccccc1)S(=O)(=O)c1ccc(Cl)cc1	0%
O=C(NCc1cccnc1)c1cc(Sc2ccccc2Cl)nc2ccccc12	3%
CC(=O)Nc1ccc(NC(=O)COc2ccc(-c3ccc(C#N)cc3)cc2)cc1	-11%
COc1ccc(C(=O)NC2CC2)cc1OC1CCN(Cc2cc(C)c(C)cc2C)CC1	0%
CCOc1ccc(NC(=O)CC2C(=O)N(c3ccccc3)C(=O)N2CCc2cccs2)cc1 (stereo not given)	7%
CCOC(=O)c1c(-c2ccc(-c3ccccc3)cc2)csc1NC(=O)C1C2CCC(O2)C1C(=O)O (stereo not given)	-3%
COc1ccc(-n2nc(C(=O)NCC(=O)Nc3cccc(NC(C)=O)c3)c3ccccc3c2=O)cc1	-9%
